High-throughput results from PubChem BioAssay.
Rango dissoc inh: qHTS Assay for Inhibitors of RanGTP induced Rango (Ran-regulated importin-beta cargo) - Importin beta complex dissociation. Snurportin-1 (Homo sapiens) + GTP-binding nuclear protein Ran (Homo sapiens) + Importin …. Biochemical FRET Rango-importin beta, RanGTP-induced dissociation. Potency, µM (top dose mostly 46.1 µM), for inactives: at the top dose activity change, negative = inhibition. 0.071% of 340,000 active. AID 540253, 2011; active means falling FRET ratio curve, often poorly fitted, with flat reads before Ran was added; inconclusive means other falling curves, or compound fluorescence or quenching; inactive means flat or rising ratio curve;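 further: potency means the concentration at half of the fitted maximal effect; % of control where 0% means no effect; nearly all actives have a fitted effect of over 45% in size; -100% = wells without RanGTP and RCC1; the record marks most hits as doubtful in a second field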
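Two FRET readings bracket the reaction: one 5 min after compound meets Rango–importin beta, another 45 min after RanGTP-RCC1 (0.6 uM Ran, 0.2 uM RCC1, 2 mM GTP) is added. Only the second defines inhibition.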
GLA inh pH 4.5: qHTS Assay for Inhibitors of Human alpha-Galactosidase at pH 4.5; Alpha-galactosidase A (Homo sapiens), P06280; activity change, negative = inhibition, % at 105 µM; 230,000 tested, under 10 active; purified enzyme, 4-MU-alpha-Gal fluorescence, pH 4.5; inconclusive = small, poorly fitted or top-dose-only inhibition, or a rising curve; inactive = flat fitted curve, though single readings scatter; no compound was filed as active;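 further: 0% = full activity with enzyme and -100% = basal without enzyme; dose as in the result columns while the protocol names 77 µM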
miR-21 reporter: qHTS Assay for Modulators of miRNAs and/orActivators of miR-21; HeLa miR-21 FLuc reporter, luciferase, 48 h; Potency, µM (top dose mostly 38.3 µM), inactives show at the top dose reporter change, positive = more light; 340,000 tested, under 10 active; active = well fitted rising curve with a large enough effect; inconclusive = small, poorly fitted or top-dose-only effect; inactive = no such curve, though single readings can be large or run the other way;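 further: % of control where 0% means no effect; miR-21 action dims this reporter so a rising signal means less miR-21 action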
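HeLa cells endogenously expressing miR-21, stably carrying CMV-driven firefly luciferase with a downstream miR-21 binding site, 2000 cells/well. Titrations up to approximately 40 uM, 48 hours; luciferase luminescence read.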
Rango complex inh: qHTS Assay for Inhibitors of Rango (Ran-regulated importin-beta cargo) - Importin beta complex formation | AID 540263, 2011 | Potency, µM (series often up to 92.2 µM), inactives show top-dose inhibition of complex formation | 0.031% of 340,000 active | Importin subunit beta-1 (Homo sapiens), Q14974 | Rango CFP/YFP FRET sensor + importin beta, 45 min; active = rising FRET ratio curve, often small or poorly fitted; inconclusive = mostly compound fluorescence or quenching in the first reads; inactive = flat curves in all reads;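 further: potency means the concentration at half of the fitted maximal effect; 0% = DMSO wells and 100% = buffer wells lacking importin beta; nearly all actives have a fitted effect of over 15% in size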
Target sequence (Q14974 whole entry, looked up): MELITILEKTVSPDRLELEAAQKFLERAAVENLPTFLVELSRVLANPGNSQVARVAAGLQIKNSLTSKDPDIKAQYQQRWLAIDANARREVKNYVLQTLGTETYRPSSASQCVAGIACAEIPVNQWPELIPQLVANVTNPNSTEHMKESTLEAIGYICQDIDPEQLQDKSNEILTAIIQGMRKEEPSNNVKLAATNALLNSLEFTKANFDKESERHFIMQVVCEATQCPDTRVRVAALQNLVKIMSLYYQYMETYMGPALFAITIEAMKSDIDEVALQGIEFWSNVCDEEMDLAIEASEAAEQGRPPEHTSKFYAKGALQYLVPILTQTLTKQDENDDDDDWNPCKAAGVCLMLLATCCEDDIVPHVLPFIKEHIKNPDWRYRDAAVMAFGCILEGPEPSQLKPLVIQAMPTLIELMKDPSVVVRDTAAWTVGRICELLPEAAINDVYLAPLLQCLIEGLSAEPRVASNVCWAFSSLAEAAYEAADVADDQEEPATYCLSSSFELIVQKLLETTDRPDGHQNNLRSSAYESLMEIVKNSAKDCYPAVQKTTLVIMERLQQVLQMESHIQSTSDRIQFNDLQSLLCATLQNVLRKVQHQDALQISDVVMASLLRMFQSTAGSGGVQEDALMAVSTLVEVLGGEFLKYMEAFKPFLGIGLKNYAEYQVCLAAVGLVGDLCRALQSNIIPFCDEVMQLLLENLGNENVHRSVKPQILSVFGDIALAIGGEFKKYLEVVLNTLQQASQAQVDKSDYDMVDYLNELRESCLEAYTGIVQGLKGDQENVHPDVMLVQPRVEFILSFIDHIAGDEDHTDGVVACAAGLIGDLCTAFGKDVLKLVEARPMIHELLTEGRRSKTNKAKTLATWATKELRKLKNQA
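FRET biosensor Rango (snurportin 1 IBB between N-terminal EYFP and C-terminal Cerulean), 50 nM in PBS/1 mM DTT/0.02% Tween-20/0.1% BSA, preincubated 5 min RT with compound; 0.125 microM importin beta added, 45 min RT, CFP/YFP FRET ratio read.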
* marks the source's active call; other numbers are inactive results; ? = inconclusive; · = no result given; [ ] = another dose, or the depositor's remark.

SMILES	Rango dissoc inh	GLA inh pH 4.5	miR-21 reporter	Rango complex inh
COc1cccc(/C=C2\SC(=S)N(C(Cc3ccccc3)C(=O)O)C2=O)c1 (centres undefined)	-12%	2	0%	-2.2%
N/C(CS(=O)(=O)c1ccc(F)cc1)=N\O	?	-8	-1%	-1.4%
Cc1cccc(-c2noc(CCCC(=O)NC3CCCCC3)n2)c1	0%	·	0%	-1.5%
COc1ccc(NC(=O)CSc2nnc(-c3cccs3)n2N)cc1S(N)(=O)=O	-4%	·	·	0.1%
C=CCOc1c(CCC)cc(CCC)cc1C(N)=O	8%	2	18%	-2.4%
Cc1cc(C)c(NC(=O)COC(=O)c2cc([N+](=O)[O-])ccc2N2CCOCC2)c(C)c1	2%	·	-15%	0.3%
Cc1noc(C)c1S(=O)(=O)N1CCCC(C(=O)NCCc2ccccc2)C1 (centres undefined)	-8%	3	1%	1.9%
CSCCC(NC(=O)c1ccc(Cl)cc1)C(=O)OCC(C)=O (centres undefined)	-3%	-1	-1%	-2.5%
O=C(Nc1nnc(C(F)(F)F)s1)c1ccc(Br)s1	2%	1	-4%	3.5%
CC(C)C(Sc1nc(-c2ccccc2)cc(-c2ccccc2)c1C#N)C(=O)O (centres undefined)	-7%	-1	8%	2.1%
CCOc1ccc(C(=O)Nc2cccc(SC)c2)cc1	9%	-18	-44%	?
CCN(CC(=O)Nc1ccc(NC(C)=O)cc1)C(=O)c1ccc(=O)[nH]c1	-4%	·	0%	?
Cc1ccc(C(=O)N/C(=C\c2cn(C)c3ccccc23)C(=O)OCCN(C)C)cc1	-10%	-11	3%	?
O=C(NCC(=O)N(CCN1CCOCC1)C(C(=O)NC1CCCC1)c1cccs1)c1ccco1 (centres undefined)	-15%	1	-1%	-0.2%
COCCn1cnnc1SCC(=O)Nc1ccc(N2CCCCC2)cc1	1%	·	·	-1.3%
Cc1cc(C)c(S(=O)(=O)N2CCN(C(=O)c3ccc(-n4nc(C)c(Cl)c4C)cc3)CC2)c(C)c1	-5%	·	·	3.9%
COc1ccc(-n2nc([N+](=O)[O-])c(=NCCCN3CCCC3=O)n2O)cc1	-5%	-2	-25%	1.8%
COCCNc1nc2nonc2nc1N1CCC(N(C)C)C1 (centres undefined)	-4%	1	-4%	-1.1%
CCCCOC(=O)CCc1c(C)[nH]c(=S)[nH]c1=O	-1%	-3	-3%	-0.3%
O=C(NC1CCCC1)c1cnc2n(c1=O)CCS2	14%	5	-2%	1.1%

4 compounds picked at random from those above:
SMILES	Rango dissoc inh	GLA inh pH 4.5	miR-21 reporter	Rango complex inh
COCCNc1nc2nonc2nc1N1CCC(N(C)C)C1 (centres undefined)	-4%	1	-4%	-1.1%
O=C(NCC(=O)N(CCN1CCOCC1)C(C(=O)NC1CCCC1)c1cccs1)c1ccco1 (centres undefined)	-15%	1	-1%	-0.2%
COc1ccc(-n2nc([N+](=O)[O-])c(=NCCCN3CCCC3=O)n2O)cc1	-5%	-2	-25%	1.8%
CCCCOC(=O)CCc1c(C)[nH]c(=S)[nH]c1=O	-1%	-3	-3%	-0.3%

Carrying on:
SMILES	Rango dissoc inh	GLA inh pH 4.5	miR-21 reporter	Rango complex inh
Cc1ccnc(N2CCC(C(=O)NNC(=O)c3ccccc3C)CC2)n1	-3%	-8	0%	4.1%
CCC[C@H]1NC(=O)[C@H](C)N(C)C(=O)C(C)(C)C(=O)C(C)NC(=O)[C@H](Cc2ccc(OC)cc2)N(C)C(=O)[C@H](C(C)C)N(C)C(=O)CNC(=O)[C@H](CC(C)C)N(C)C(=O)CNC(=O)[C@H]([C@@H](C)CC)OC(=O)[C@H]1C (some centres undefined)	10%	·	·	2.7%
COc1cccc(CSc2nc3ccccc3[nH]2)c1	-2%	2	-41%	7.3%
COc1ccc(N2CC(C(=O)N3CCOCC3)CC2=O)cc1 (centres undefined)	-4%	·	1%	-0.6%
COc1ccc(CNC(=O)c2ccc[nH]2)cc1	7%	-7	-5%	-5.6%
O=C(CSc1ccc(Cl)cc1)Nn1cnnc1	24%	5	-4%	-3.4%
C=CCN(C(C)=O)C1CC(=O)N(c2ccc(OCCC)cc2)C1=O (centres undefined)	1%	1	0%	-0.8%
O=C(NCc1cccs1)c1ccc(N2CCCCC2)nc1	-11%	16	-54%	-1.9%
Cc1ccc2nc(SCc3ccc([N+](=O)[O-])cc3)[nH]c2c1	7%	9	-6%	-1.0%
Nc1nc(SCc2cccnc2)c2ncn(C3OC(CO)C(O)C3O)c2n1 (centres undefined)	-1%	·	·	-0.4%
CCCC(C)NC(=O)c1cc(C(=O)OC)cc([N+](=O)[O-])c1 (centres undefined)	2%	-6	1%	0.7%
CCn1c2ccccc2c2cc(NC(=O)C(C)OC(=O)c3ccc(NC(=O)CC#N)cc3)ccc21 (centres undefined)	3%	·	·	-1.1%
CSc1c(C#N)sc(=S)n1-c1ccc(C)cc1	-21%	2	-6%	-1.4%
CC(OC(=O)c1ccccc1Br)C(=O)Nc1nc(-c2cccc([N+](=O)[O-])c2)cs1 (centres undefined)	3%	-2	-20%	0.0%
Cn1c(CN2CCCCC2)nc2cc(NS(=O)(=O)c3ccc(Cl)cc3)ccc21	6%	-4	-1%	?
COC(=O)C1CCCN1S(=O)(=O)c1ccc([N+](=O)[O-])cc1 (centres undefined)	8%	·	3%	-0.5%
Cc1cccc(NC(=O)CSc2nnc(CSc3nc(C)cc(C)n3)n2Cc2ccco2)c1	12%	1	1%	0.7%
CCN(CC)CCCN1C(=O)C(=O)/C(=C(/O)c2ccc(OC)cc2)C1c1ccco1 (centres undefined)	-13%	·	·	-2.5%
O=C(COC(=O)c1cncc(Br)c1)Nc1ccc(N2CCCCC2)cc1	1%	·	·	-0.2%
Cc1ccc(-c2csc(=S)n2CC(=O)OCC(=O)NCc2ccco2)cc1	-10%	0	6%	?

The list goes on, starting with the last 2 of the part before.
SMILES	Rango dissoc inh	GLA inh pH 4.5	miR-21 reporter	Rango complex inh
O=C(COC(=O)c1cncc(Br)c1)Nc1ccc(N2CCCCC2)cc1	1%	·	·	-0.2%
Cc1ccc(-c2csc(=S)n2CC(=O)OCC(=O)NCc2ccco2)cc1	-10%	0	6%	?
Cc1onc(-c2ccccc2Cl)c1C(=O)N1CCN(c2ccc(F)cc2)CC1	19%	·	0%	0.5%
Cc1ccc(CCNC(=O)CNS(=O)(=O)c2ccc3nc(C)sc3c2)cc1	10%	·	2%	?
CC(=O)Cc1nsc(NC(=O)c2cn(-c3ccccc3)nc2-c2ccc(Br)cc2)n1	2%	5	1%	1.4%
Cc1cc(C)cc(C(=O)Nc2ccncc2)c1	-19%	·	0%	0.5%
O=[N+]([O-])c1cc(/C=N/Nc2nc3ccccc3[nH]2)c(O)cc1O	1%	-19	-33%	3.8%
CCOc1ccc(/C=C(/C#N)c2nnc(N3CCOCC3)n2-c2ccccc2)cc1OC	-7%	·	·	-1.8%
Cc1ccc(Sc2ncccc2N)cc1	4%	·	·	?
CCn1c(C(Cc2ccccc2)NC(=O)COC)nc2ccccc21 (centres undefined)	-6%	5	-1%	-0.2%
CC(C)(C)OC(=O)N1CCOCCOCCNCCOCCOCC1	12%	-4	-6%	-5.7%
CCOc1ccc(C2=Nc3ccccc3C(c3ccc(N4CCOCC4)cc3)=NN2)cc1	-18%	?	-36%	?
Cc1cccc(Nc2ccccc2)c1	1%	0	-4%	-1.0%
N#Cc1c(-c2ccc(F)cc2)c2c([nH]c1=O)-c1ccccc1OC2	?	?	2%	?
COc1ccccc1C1CCN(Cc2ccccc2Cl)CC1	-4%	·	-3%	-0.5%
O=C(CC1SC(=O)NC1=O)Nc1ccc(Cl)cc1 (centres undefined)	4%	·	0%	5.0%
COC(=O)c1c(NC(=O)CSc2nnc3ccccn23)sc2c1CCC2	-14%	2	-13%	-0.6%
CC(C)c1ccc(Nc2nc(Cl)nc(NCc3ccco3)n2)cc1	-20%	4	-2%	6.8%
CC(C)OCCCNc1nc(Cl)nc2c1cnn2C	-23%	·	·	?
Nc1ncnc(Oc2ccccc2F)c1[N+](=O)[O-]	-4%	7	0%	-2.5%
CC(C)C(=O)Nc1cccc(COc2ccc(CN(CCc3ccccc3)C(=O)OC(C)(C)C)cc2)c1	10%	·	·	5.8%
Cc1ccc(S(=O)(=O)NC(=O)N2CCC(C)CC2)cc1	·	-7	-3%	·
CCOC(=O)C(CCC#N)(CCC#N)C(=O)OCC	-4%	-2	-5%	-0.4%
O=C(c1cccc(Br)c1)N1CCCC1	1%	-5	-4%	-0.8%
COc1ccc(CCNc2ncnc3[nH]ncc23)cc1OC	-1%	-4	10%	-2.4%
O=C(COC(=O)Cc1cccc(C(F)(F)F)c1)Nc1ccc2[nH]c(=O)[nH]c2c1	-21%	·	·	3.0%
c1csc(C(c2nnnn2C2CCCC2)N2CCOCC2)c1 (centres undefined)	4%	4	0%	-2.1%
COc1ccc(-n2c(SCC#N)nnc2-c2cccnc2)cc1	1%	-3	-16%	1.4%
CN(CCNC(=O)C1CCC(=O)N(Cc2ccc(Cl)cc2)C1)CCc1ccccc1 (centres undefined)	-24%	·	-1%	2.9%
CCn1cc(S(=O)(=O)c2ccc(Cl)cc2)c(=O)c2cc(OC)ccc21	-3%	·	-4%	3.2%
CCCC[C@@]1(C2CCCC2)Cc2cc(OCC(=O)O)c(Cl)c(Cl)c2C1=O	19%	5	·	0.7%
O=C(O)CCc1ccc(-c2ccccc2)n1NC(=O)c1cccs1	2%	3	-6%	1.1%
COCCCNC(=O)CC(NS(=O)(=O)c1ccc(OC)cc1)c1ccc(OC)cc1 (centres undefined)	2%	-2	0%	-6.1%
CCCN(CCC)CCNc1c(N2CCN(C(=O)OCC)CC2)c(=O)c1=O	7%	15	-2%	3.4%
O=C(c1ccc(F)cc1)C1CCN(C(=O)Nc2ccc(F)cc2F)CC1	-19%	·	10%	-1.1%
CN(C)C(CNC(=O)C1CC(=O)N(Cc2ccccc2)C1)c1ccccc1 (centres undefined)	0%	·	·	-2.7%
O=C(NOC(=O)c1ccccc1Cl)c1cccs1	-1%	3	2%	0.2%
COc1ccc(NC(=O)CC(C(=O)O)N2CCCCC2)cc1 (centres undefined)	15%	2	1%	-0.4%
COc1cc(OC)cc(C(=O)NC2CC3CCC(C2)N3Cc2ccco2)c1 (centres undefined)	3%	6	-11%	2.1%
Cc1ccc(-c2csc(SCC(=O)c3c(N)n(C4CC4)c(=O)[nH]c3=O)n2)cc1	0%	·	·	0.3%
O=S(Cc1ccccc1)c1ccccc1 (centres undefined)	-5%	·	·	0.2%
CC1=C(C(=O)OCCC(C)C)C(c2ccc3c(c2)OCO3)NC(=O)N1 (centres undefined)	17%	·	9%	-1.5%
COc1ccc(NC(=O)/C(=C\c2ccncc2)NC(=O)c2ccccc2)cc1	-7%	6[21.1 µM]	-2%	3.0%
Cc1ccc(SCC2=NNC(=O)C2)cc1	6%	-20	-1%	4.3%
CC(NCc1ccccc1O)c1ccccc1 (centres undefined)	-21%	5	-4%	?
CCOC(=O)c1cc(C#N)c(Nc2ccccc2OC)nc1C(F)(F)F	5%	0	5%	?
CN(C)c1ccc(N2C(=NC(=O)CC3CCCCC3)SC3CS(=O)(=O)CC32)cc1 (centres undefined)	29%	·	0%	-0.4%
Nc1cc(C(=O)c2ccccc2)ccc1[N+](=O)[O-]	-8%	-9	-36%	0.4%
COc1ccc(CN2CC(C(=O)NCCCOC(C)C)CC2=O)cc1 (centres undefined)	1%	-6	-1%	-5.1%
Cn1c(=O)cc(C(=O)N/N=C/c2ccc(Cl)cc2)[nH]c1=O	20%	-1	-1%	1.1%
CC(=O)Nc1cnn(Cc2ccc(Br)cc2)c1	-8%	-1	0%	0.5%

Only part of the results is shown. The share of hits here may be higher or lower than overall.
